# Source: PubChem (several laboratories)
# Mtb hypoxia rep – reduces hypoxia-regulated biosensor signal in M. tuberculosis; M. tuberculosis hypoxia-regulated fluorescent reporter, fluorescence; fluorescence inhibition, % (no concentration beside the values); actives 0.1% (n = 300,000);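 active = 35 to 45% if threefold the growth effect, above 45% if 1.5-fold the growth effect; inactive = the rest, general growth blockers included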;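 note: wells of about 50 µL received 100 nL stock; 0% = vehicle wells and 100% = reference inhibitor wells; whole bacteria with a GFP reporter of the hypoxia response; strong numbers were not always called active; many hits fall short of the cut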
# PrP UTR inh – suppresses PrP 5' UTR mRNA reporter expression; cell-based PrP 5' UTR mRNA reporter, plate reader; inhibition, % (test concentration not listed); actives 0.35% (n = 340,000); AID 488862;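 active = every replicate at 50% or more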;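 note: 0 = median of the neutral control wells; tested in H4 reporter cells; numbers are from one replicate; inactives centre near -14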
# Sa RN4220 lethal – kills Staphylococcus aureus RN4220 | inhibition, % (test concentration not listed) | S. aureus RN4220 growth, OD600, 16 h | actives 0.33% (n = 330,000) | AID 1259311;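 active = z-score of -3 or lower and OD600 up to 0.18 on both plates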;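 note: plate controls were untreated cells for no effect and reference antibiotic for full effect; stock transfer was 100 nL into about 80 µL; one replicate is shown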
# ugtP null kill – growth inhibition of S. aureus ugtP deletion strain. S. aureus RN4220 ugtP deletion, OD600 growth, 16 h; some inactives read as strong as hits. growth inhibition, % (no concentration beside the values). actives 0.54% (n = 330,000);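 active = z-score under -3 and OD600 up to 0.15 on both plates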;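 note: plate controls were untreated wells for no effect and antibiotic for full effect; wells of about 80 µL received 100 nL stock; the first replicate is given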
# Autofluor counter – flagged as autofluorescent in microsphere protease counterscreen | fluorescence intensity (concentration not given with the values) | compound autofluorescence counterscreen, microsphere flow cytometry; active compounds read high | actives 3.1% (n = 360,000);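 active = at least 3 SD above the mean of all compounds, about 16000 in these data; inconclusive = too few beads counted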;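 note: 100 nL of 1 mM stock went into each well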
# BJeLR lethal – kills HRASV12-expressing BJeLR cells. BJeLR (HRASV12) viability, CellTiter-Glo ATP luminescence, 48 h; reference of the scale not given here. actives 0.17% (n = 300,000). inhibition, % (test concentration not listed);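 active = replicate mean above 50%; inconclusive = above 50% but judged a plate artefact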;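 note: 50 nL library stock added to about 25 µL; numbers are from one replicate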
# Mtb hypoxia rep growth – second read-out of Mtb hypoxia rep, no call of its own (marks repeat the call); growth inhibition, %; measured here: M. tuberculosis growth (absorbance);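 0% = vehicle and 100% = reference antibiotic; read after six days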
# An asterisk follows results filed as active; ? = inconclusive; · = no result given.
canonical_smiles	Mtb hypoxia rep	Mtb hypoxia rep growth	PrP UTR inh	Sa RN4220 lethal	ugtP null kill	Autofluor counter	BJeLR lethal
COc1ccc(CNC(=O)C2CCCN(S(=O)(=O)c3ccccc3)C2)cc1 (configuration not stated)	-1	8	-16	0.0	7	5279	4
O=C(CCC(=O)N(CC(=O)NC1CCCC1)Cc1ccc(F)cc1)Nc1nccs1	-13	3	-24	6.3	10	5263	3
Cc1nnc(SCC(=O)N2CCCC(C(=O)c3ccc(Cl)cc3)C2)o1 (configuration not stated)	-7	0	-2	13	10	3824	0
CCn1nc(C(=O)OC(C(=O)c2c[nH]c3ccccc23)c2ccccc2)c2ccccc2c1=O (configuration not stated)	4	7	-8	11	4	11584	5
COc1cc(O)c(CCC(=O)c2ccc(OC)c(OC)c2)c(OC)c1	13	9	-18	3.4	-6	3728	11
CN1CCN(c2ccc(S(=O)(=O)N3CCOCC3)cc2NC(=O)CSCc2ccccc2)CC1	1	3	-20	9.7	7	3955	·
CN(C)C(=O)CSc1nnc([C@H](Cc2ccccc2)NC(=O)OC(C)(C)C)o1	14	6	-16	3.3	4	4579	9
Cc1ccc(C)c(NC(=O)C(Sc2cccc[n+]2[O-])c2ccccc2)c1 (configuration not stated)	15	5	-13	8.3	6	4110	-10
CC(=O)Nc1ccc(S(=O)(=O)N=C2SCCN2S(=O)(=O)c2ccc(NC(C)=O)cc2)cc1	9	7	·	6.2	3	·	·
CCC(C)NC(=O)CSc1nc2n[nH]c(C)c2c(=N)n1-c1ccc(OC)cc1 (configuration not stated)	·	·	7	1.7	-1	4797	-7
CC(=NNc1ccc(C(F)(F)F)cc1[N+](=O)[O-])C1CC1	2	0	·	4.5	26	·	·
COc1cccc(NC(=O)Nc2ccc3c(c2)CCC3)c1	1	-3	-40	4.1	-2	·	3
Cc1cc(C)n(CCN(C)Cc2cn[nH]c2-c2ccc(F)cc2F)n1	14	5	-24	4.7	8	2548	-14
CCCCC(=O)Nc1ccc(F)c(Cl)c1	6	3	10	1.2	-3	10673	-14
Cn1c(=O)c(Oc2ccc(F)cc2)c(O)c2ccccc21	21	42	-16	5.3	6	2144	-2
CSc1ccccc1NC(=O)Cn1c(-c2cscn2)nc2ccccc21	-3	-6	-18	17	6	?	-2
COC(=O)[C@H]1[C@@H](C)N(CCc2cc(OC)c(OC)c(OC)c2)C(=O)N[C@H]1c1ccccc1	·	·	-12	·	·	3473	-3
COc1ccc(NC(=O)C/C(C)=N/NC(=O)C(=O)Nc2cccc(Cl)c2C)c(OC)c1	·	·	-25	·	·	4470	0
CCCOc1ccc(NC(=O)c2c(-c3ccccc3)noc2C)cc1	·	·	-6	9.3	4	4099	-2
COc1cc(C2C(C#N)=C(N)N(N(C)C)C3=C2C(=O)CCC3)cc(OC)c1OC (configuration not stated)	15	2	-3	0.6	9	3656	5
CCN1CC=C2C(C#N)=C(N)C(C#N)(C#N)C(c3cc(Cl)ccc3Cl)C2C1 (configuration not stated)	2	5	4	-0.7	2	3136	-5
CCc1cc(-c2n[nH]c(CCC(=O)O)c2-c2nc3ccccc3n2C)c(O)cc1O	-2	2	-15	8.6	6	4014	2
CC(C(=O)NC1CCCC1)N1CCN(S(=O)(=O)c2ccc(C(C)(C)C)cc2)CC1 (configuration not stated)	3	-1	-23	5.4	19	2891	·
COc1ccccc1CNC(=O)CCNC(=O)N1CC(=O)Nc2ccccc21	9	-6	-13	3.4	0	6063	10
CSc1ccccc1C(=O)C1CCCN(C(=O)c2csnn2)C1 (configuration not stated)	14	3	-37	3.7	6	4242	5
O=C(N/N=C/c1cccnc1)c1cc(O)c(O)c(O)c1	·	·	-5	·	·	3773	-3
Cc1ccc(NC(=O)C/C(N)=N/O)cc1C	-2	9	-13	2.4	0	10988	6
O=C(c1cc(COc2ccc(F)cc2F)on1)N1CCSCC1	16	8	-53	18	10	3364	·
COc1ccccc1NS(=O)(=O)c1ccc2oc(SC)nc2c1	-1	1	2	7.7	1	2981	-2
O=C(/C=C/c1ccccc1[N+](=O)[O-])OC1CCCCC1=O (configuration not stated)	8	3	-24	7.2	8	4278	·
O=C(CCc1ccc(S(=O)(=O)N2CCOCC2)cc1)Nc1ccc(F)cc1[N+](=O)[O-]	16	13	-15	4.2	7	4077	·
NC(=O)C(F)(F)C12OC3C4C5CC(C6C5C3C61)C42 (configuration not stated)	4	4	-21	6.1	12	9379	-6
O=C(COC(=O)c1ccc2[nH]c3c(c2c1)CCCC3)Nc1ccccc1	-5	-6	13	13	-16	2512	2
CC(=NNC(=O)c1ccc(Br)o1)C(C)C	16	7	·	5.7	-1	·	·
O=C(NN=Cc1cccnc1)c1ccc([N+](=O)[O-])cc1	-1	2	·	4.6	3	·	·
CC1=C(c2ccc(C)cc2)[N+](=O)C(C)(C)N1[O-]	-1	14	-15	2.2	3	4609	3
CCCn1c(=O)c(C(=O)NCCc2ccc(Cl)cc2)c(O)c2ccccc21	14	7	-3	1.3	3	3158	2
CCN(CC(=O)NC1CC1)S(=O)(=O)c1ccc(C)cc1	-3	1	-9	1.6	2	4320	3
O=C1CC(c2ccc(F)cc2)C2=C(CCCC2=O)N1 (configuration not stated)	·	·	-36	2.1	4	2854	7
CC(C)(C)OC(=O)N1CCC2(CC1)Oc1ccc(F)cc1C(=O)C21CC(c2cccnc2)=NO1 (configuration not stated)	3	4	-7	3.7	8	2897	4
Cc1cc(/C=C2/NC(=S)NC2=O)c(C)n1-c1cccnc1	·	·	-34	·	·	2159	-6
Cc1ccc(C(=O)NCCNC(=O)c2cccnc2)cc1	2	5	-7	2.0	0	5684	-2
CN1CCC(N(C)C(=O)/C(C#N)=C/c2ccccc2)CC1	0	8	-19	6.8	14	3662	1
CCNc1nc(NC(C)C)nc(Oc2ccc(=O)n(C)n2)n1	-1	4	-23	3.7	10	4352	-3
O=c1cc(NCc2ccco2)c2ccccc2o1	1	6	-13	7.3	-6	3351	-2
COc1ccc(NC(=O)N2CCCCCC2)cc1OC	0	0	-15	2.8	6	5720	-2
CCOC(=O)C1CCN(CC(=O)Nc2cc(S(=O)(=O)N3CCCCC3)ccc2Cl)CC1	-11	1	-13	0.3	12	4571	·
Cc1nnc(NC(=O)c2ccccc2-c2ccccc2C(=O)O)s1	·	·	1	5.0	0	4357	-3
CCc1nn2c(=O)c(S(=O)(=O)Nc3ccc(Cl)cc3)c(C)nc2s1	13	10	-5	4.8	17	5015	10
CCCCCN(C(=O)CCC(=O)OCC(=O)NC1CCC(C)CC1)c1c(N)n(CCCC)c(=O)[nH]c1=O (configuration not stated)	-9	-5	9	4.0	1	?	11
O=C(c1ccc(COc2ccccc2[N+](=O)[O-])o1)N1CCCCCC1	·	·	-19	2.4	-5	4550	0
Nc1nc(SCC(=O)NC2CCCc3ccccc32)n[nH]1 (configuration not stated)	10	11	-36	2.3	0	4319	-11
Cn1nc(C(F)(F)F)c(C(=O)Nc2cccc(Cl)c2)c1Cl	3	-6	7	-0.4	-7	25124*	-11
CCOC(=O)COc1ccc2c(=O)c(-c3ccccc3)coc2c1	·	·	-4	·	·	5968	11
O=C(/C=C/c1cccc(Cl)c1)NCCCN1CCOCC1	4	4	-23	5.1	11	5030	3
C=CCn1c(O)c(C(CC)=NCc2cccnc2)c(=O)[nH]c1=O	11	6	-18	5.5	-13	·	6
COC(=O)CN=C1OC(=O)N2C(=O)C3=C4[C@@H](C[C@H]5C(=O)N(c6ccccc6)C(=O)[C@H]5[C@H]4[C@@]12Cc1ccccc1)[C@H]1C(=O)N(c2ccccc2)C(=O)[C@H]1[C@H]3C	·	·	-3	·	·	2990	8
Cc1ccc2c(c1)c(CC(=O)Nc1ccc(F)cc1)c(C(=O)O)n2C	-5	6	1	-6.5	-18	7871	5
CCN1CCN(C(=O)CCc2nnc(CCc3c[nH]c4ccccc34)o2)[C@@H](C)C1=O	7	1	-4	2.8	5	5249	5
Cn1cnc([N+](=O)[O-])c1Sc1ncccc1N	-2	5	-10	-0.2	-4	22024*	2

# (cont.)
canonical_smiles	Mtb hypoxia rep	Mtb hypoxia rep growth	PrP UTR inh	Sa RN4220 lethal	ugtP null kill	Autofluor counter	BJeLR lethal
CS(=O)(=O)N1CCCC(C(=O)N2CCN(c3cccc(Cl)c3)CC2)C1 (configuration not stated)	3	-1	-14	2.0	1	3335	6
S=C1NCCOCCOCCOCCOCCNC(=S)N2CCOCCOCCN1CCOCC2	5	1	-21	3.6	6	4660	2
NC(=O)COc1ccc2c3c(c(=O)oc2c1)CCCCC3	10	11	-7	3.5	3	24285*	·
Cc1ccnc(NN=Cc2ccco2)n1	-2	6	·	-1.1	-3	·	·
CC(c1nc2ccccc2n1Cc1ccccc1)N1CCCCC1 (configuration not stated)	-11	2	-31	-0.2	5	4481	-6
CCC(C)c1ccc(NC(=O)c2[nH]c(C)c(C(C)=O)c2C)cc1 (configuration not stated)	2	-2	-53	2.1	-11	6070	-9
Cc1c(C2CC(=O)N(c3ccccc3)C2=O)[nH]n(-c2ccccc2)c1=O (configuration not stated)	3	9	-25	7.2	3	2906	10
O=C(Nc1ccc(F)c(Cl)c1)Nn1cnnc1	·	·	9	·	·	4206	4
CCOc1ccc(N(CC(=O)N2CCCC2)S(=O)(=O)c2ccc(Cl)cc2)cc1	1	-8	-23	-3.1	11	5540	-3
CN(C)/C=N/c1cnc(C(=O)c2ccc(Cl)cc2)n1C	·	·	-116	·	·	3269	7
CN(C)C(=O)c1ccc(-n2cnc3ccccc3c2=O)cc1	-1	11	-36	3.7	0	4555	5
CN(C)Cc1nc2c(c(=O)[nH]1)C1(CCCCC1)Cc1ccccc1-2	8	2	-15	-1.5	19	8784	-4
O=C(O)[C@@H]1CCCN1C(=O)COc1ccc2c3c(c(=O)oc2c1)CCC3	·	·	-23	5.4	10	3897	-5
CCOC1OC(=O)C(Cl)=C1Nc1ccc(C)cc1C (configuration not stated)	10	4	-10	0.1	6	2364	7
COc1ccccc1Oc1nc(-c2cccnc2)nc2ccccc12	12	6	-5	3.6	-2	4382	6
COc1ccc(CCNC(=O)c2ccc3nc(N4CCOCC4)sc3c2)cc1OC	-5	4	-9	4.4	14	4259	-9
COc1ccc(C2CC2C(=O)c2ccccn2)cc1 (configuration not stated)	7	0	-27	3.0	12	4757	2
Cc1cc(=O)oc(C)c1C(=O)n1nc(C)c2c1C[C@@H]1[C@H]2C1(C)C	·	·	-28	·	·	2865	1
CCOc1cccc(C(=O)Nc2ccccc2N2CCN(C(=O)C(C)C)CC2)c1	-1	8	-11	3.5	-2	9296	-4
Cc1cc(C)cc(N(CCC#N)C(=O)COC(=O)c2nc3nc(C)cc(C)n3n2)c1	·	·	-17	·	·	6357	11
COc1cccc(OCc2cc(C(=O)NCc3ccc4c(c3)OCO4)no2)c1	2	6	-43	-3.7	2	5672	-4
CCc1c(O)nc(SCC(=O)Nc2nc3ccccc3s2)n(-c2ccccc2)c1=O	25	14	-21	17	-3	·	4
CC1(C)C(=O)Nc2ccccc2N1C(=O)COC(=O)c1ccc(NC(N)=O)cc1	3	0	-13	-0.9	-5	5595	·
CSCC(=O)N1CCC(Oc2cccc(C(=O)NCc3ccccn3)c2)CC1	6	7	-23	-0.3	3	5746	-3
CC1C(=O)OC2CCN3CC=C(COC(=O)[C@](C)(O)[C@]1(C)O)C23 (some centres not stated)	-6	-1	·	0.5	-3	·	·
COc1ccccc1-c1noc2ncnc(Nc3cccc(C)c3C)c12	10	7	-20	5.5	-7	4386	-6

# Only Autofluor counter and PrP UTR inh, for 3 of the compounds above:
Structure	Autofluor counter	PrP UTR inh
CCc1c(O)nc(SCC(=O)Nc2nc3ccccc3s2)n(-c2ccccc2)c1=O	·	-21
CC1(C)C(=O)Nc2ccccc2N1C(=O)COC(=O)c1ccc(NC(N)=O)cc1	5595	-13
CSCC(=O)N1CCC(Oc2cccc(C(=O)NCc3ccccn3)c2)CC1	5746	-23
